Screening data: PubChem BioAssay, Johns Hopkins Ion Channel Center
KCNQ2 inh – KCNQ2 potassium channel inhibitors, primary screen, cell-based, CHO-K1, FluxOR thallium flux, B-score (AID 2156). B-score at 10 µM. 1.1% of 310,000 active. O88943. 20 min; active compounds read low; only compounds with negative scores are shown here; some inactives read as strong as hits;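 active means fluorescence ratio B-score at most minus 3 library SDs, with starting brightness B-score within 2 library SDs, cut at about -5.5 in these data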
Target sequence (O88943 whole entry, looked up): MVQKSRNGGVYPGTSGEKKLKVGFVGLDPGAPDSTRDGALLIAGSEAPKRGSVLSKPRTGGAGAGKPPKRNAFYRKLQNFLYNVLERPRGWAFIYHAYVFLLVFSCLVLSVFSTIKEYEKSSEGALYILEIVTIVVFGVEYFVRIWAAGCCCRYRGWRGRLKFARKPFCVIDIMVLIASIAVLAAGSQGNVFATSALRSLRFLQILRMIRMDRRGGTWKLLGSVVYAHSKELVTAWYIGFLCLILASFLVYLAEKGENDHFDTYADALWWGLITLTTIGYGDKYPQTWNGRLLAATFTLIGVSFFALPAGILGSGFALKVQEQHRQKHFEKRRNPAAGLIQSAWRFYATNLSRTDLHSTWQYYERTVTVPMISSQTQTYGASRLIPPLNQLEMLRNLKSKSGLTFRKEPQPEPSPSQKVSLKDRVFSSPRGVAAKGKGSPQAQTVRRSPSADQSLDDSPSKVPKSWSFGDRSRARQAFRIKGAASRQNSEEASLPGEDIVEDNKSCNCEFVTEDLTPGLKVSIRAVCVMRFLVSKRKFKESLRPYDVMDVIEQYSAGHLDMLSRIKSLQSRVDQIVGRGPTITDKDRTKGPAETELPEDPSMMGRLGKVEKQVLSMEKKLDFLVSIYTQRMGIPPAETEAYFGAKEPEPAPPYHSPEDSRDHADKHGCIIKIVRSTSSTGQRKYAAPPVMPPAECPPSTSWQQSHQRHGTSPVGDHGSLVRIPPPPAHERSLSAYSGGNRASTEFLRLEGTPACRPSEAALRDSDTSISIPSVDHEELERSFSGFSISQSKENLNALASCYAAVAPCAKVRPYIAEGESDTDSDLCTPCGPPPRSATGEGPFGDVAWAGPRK
KCNQ2 inh baseline – also measured in KCNQ2 inh; calls as there; B-score; measured here: initial fluorescence intensity artifact check;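 brightness before thallium and not channel activity; 0 = typical well and far values either way flag optical interference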
* hit, by the source's call; i = inactive. Not all compounds are listed (hit frequency here may not be typical).

SMILES	KCNQ2 inh	KCNQ2 inh baseline
O=C(NCCCN1CCCC1=O)Nc1ccc(Br)cc1Cl	i	-1.4
Cc1cccc(C(C)C)c1NC(=O)COC(=O)CCN1C(=O)C2CC=CCC2C1=O (stereo not given)	i	-0.85
COC(=O)c1ccc(C2NCCc3cc(OC)c(OC)cc32)cc1 (stereo not given)	i	-0.1
COc1ccc(/C=C2/SC(=S)N(CCCC(=O)Nc3ccc(O)cc3)C2=O)cc1OC	i	-1.1
COc1ccc(-c2cc(C(=O)N(C)CCc3ccc(OC)c(OC)c3)c3ccccc3n2)cc1	-5.6*	-0.03*
CCC(CC)C(=O)Nc1cccc(C(=O)Nc2nnc(C)s2)c1	i	-0.25
Cc1cc(C)cc(NC(=O)c2oc3ccccc3c2COc2ccccc2)c1	i	-0.12
O=C(NNC(=O)C1CC2CCC1C2)c1ccccc1 (stereo not given)	i	1.2
CC1CCC(NC(=O)C2COc3ccccc3O2)CC1 (stereo not given)	i	0.26
C/C(=N/NC(=S)Nc1cccc(C)c1)c1cccc([N+](=O)[O-])c1	i	0.03

Reprinted from the part before: 4 compounds; new compounds follow.
SMILES	KCNQ2 inh	KCNQ2 inh baseline
Cc1cc(C)cc(NC(=O)c2oc3ccccc3c2COc2ccccc2)c1	i	-0.12
O=C(NNC(=O)C1CC2CCC1C2)c1ccccc1 (stereo not given)	i	1.2
CC1CCC(NC(=O)C2COc3ccccc3O2)CC1 (stereo not given)	i	0.26
C/C(=N/NC(=S)Nc1cccc(C)c1)c1cccc([N+](=O)[O-])c1	i	0.03
O=C(N/N=C/c1cccc([N+](=O)[O-])c1)c1nc2ccccc2c(=O)[nH]1	i	-1.9
COc1cc(-c2ccccc2)nc2ccccc12	i	0.31
Cc1nn(-c2nc3ccccc3s2)c(N)c1Sc1ccc(F)cc1	i	-1.1
COc1ccc(Cc2nnc(SCC(=O)NC3CCCC3)o2)cc1	i	0.14
O=C(COC(=O)C1CCC1)Nc1cccc(S(=O)(=O)N2CCOCC2)c1	i	-0.33
Cc1ccn(CC(=O)N2CCCC(C(=O)c3cccc4ccccc34)C2)n1 (stereo not given)	i	-0.01
CCOc1ccccc1NC(=O)c1ccc2c(c1)C(=O)N(CC1CCCO1)C2=O (stereo not given)	i	1.2
CC12C(=O)N(c3cccc(OC(=O)c4ccco4)c3)C(=O)C1C1c3ccccc3C2c2ccccc21 (stereo not given)	i	2.2
COc1ccc(N(C(C)C(=O)N/N=C/c2ccc(OC(C)C)cc2)S(C)(=O)=O)cc1 (stereo not given)	i	-0.04
Cc1[nH]c2ccccc2c1C(=O)C(=O)N1CCOCC1	i	-1.4
COc1ccccc1NC(=S)N/N=C/c1ccc(O)cc1	i	0.03
O=C(NC1CCCCC1)C1CC(=O)N(Cc2ccccc2)C1 (stereo not given)	i	-1.1
Cc1ccc(C(=O)N2CCN(c3ccc(N4CCOCC4)nn3)CC2)cc1	i	0.99
Cc1ccc2[nH]c(=O)c(CN(CCCO)S(=O)(=O)c3c(C)ccc4nsnc34)cc2c1	i	0.05
CC1CCN(C(=O)c2ccccc2NS(=O)(=O)c2ccccc2)CC1	i	0.13
Cn1c(SCC(=O)Nc2sc3c(c2C#N)CCC3)nnc1C1COc2ccccc2O1 (stereo not given)	i	-0.31
O=C(c1ccco1)N1CCN(CC(=O)N2CCCc3c2c(=O)oc2ccc(O)cc32)CC1	i	2.2
Cc1cc(C)n(-c2cccc(F)n2)n1	i	0.49
CN(C)c1ccc(C(CN)c2c[nH]c3ccccc23)cc1 (stereo not given)	i	-2.4
O=C(N/N=C/c1ccccn1)c1cc(-c2ccncc2)nc2ccccc12	i	-0.21
O=C(c1ccccc1F)N1CCCC(c2ccccc2)C1 (stereo not given)	i	1.1
Cn1c(CCN2CCN(c3ccccc3)CC2)nc2cc(NC(=O)c3ccco3)ccc21	i	0.01
CCOc1ccc(C(=O)CCC(=O)N2CCN(c3ncccn3)CC2)cc1	i	-0.75
COc1ccc(OC)c(CNC(=O)C(C)n2nc(C)c3c(C)n(-c4ccccc4)nc3c2=O)c1 (stereo not given)	i	0.43
NC(=O)CC1C(=O)N(c2ccccc2)C(=S)N1NC(=O)c1ccccc1 (stereo not given)	i	1.1
CC(=O)c1ccc(C(C)(C)c2ccc(C(C)=O)s2)s1	i	-2.3
Cc1cc(NS(=O)(=O)c2ccc(NC(=O)Nc3ccc4c(c3)OCO4)cc2)no1	i	0.52
CCC(C)C(NS(=O)(=O)c1ccc(C)cc1)C(=O)Oc1ccc2c3c(c(=O)oc2c1)CCC3 (stereo not given)	i	1.7
Cc1cc(C)c2[nH]c(O)c(N=NC(=O)c3cc4c(s3)CCCC4)c2c1	i	2
CCCCCn1c(CN2CCN(c3cc(Cl)ccc3C)CC2)nc2c1c(=O)[nH]c(=O)n2C	i	-0.27
CN1CCN(c2ccccc2NC(=O)c2cccc(OCc3ccccc3)c2)CC1	i	-0.21
C/C(=C\c1ccccc1)C(=O)N1CCN(c2cccc(C(F)(F)F)c2)CC1	-6.2*	-0.8*
CN(Cc1nc(-c2ccc(Cl)cc2)no1)C(=O)c1ccc2c(c1)OCO2	i	0.43
CCCN1CCN(C(=O)Cn2cnc3sc(C)c(S(=O)(=O)N4CCC(C)CC4)c3c2=O)CC1	i	-1.7
c1ccc(-c2ccc3nnnn3n2)cc1	i	-0.53
CCCc1cc2c(cc1NC(=O)c1ccco1)OCO2	i	-0.92
O=C1c2ccc([N+](=O)[O-])cc2S(=O)(=O)N1Cc1ccccc1	i	-0.52
CCCN=CC1=C(O)CC(c2ccccc2)CC1=O (stereo not given)	i	0.74
O=C(CSc1nccc(=O)[nH]1)NCc1ccco1	i	-1.5
CN1C(=O)C(O)(CC(=O)c2ccccn2)c2cc(Br)ccc21 (stereo not given)	i	0.69

3 structures out of the list, ordered by SMILES length, low to high:
SMILES	KCNQ2 inh	KCNQ2 inh baseline
CCCN=CC1=C(O)CC(c2ccccc2)CC1=O (stereo not given)	i	0.74
CCCc1cc2c(cc1NC(=O)c1ccco1)OCO2	i	-0.92
CN(Cc1nc(-c2ccc(Cl)cc2)no1)C(=O)c1ccc2c(c1)OCO2	i	0.43

Carrying on.
SMILES	KCNQ2 inh	KCNQ2 inh baseline
CCc1c(C)c(C#N)c2[nH]c3ccccc3n2c1=S	i	-0.78
Cc1cccc(N(C)C(=S)Oc2ccc3ccccc3c2)c1	i	-0.51
O=[N+]([O-])c1c(NCCO)cc(N2CCCCC2)c2nonc12	i	0.47
COc1cccc(C(=O)NCc2ccc3[nH]c(C)cc3c2)c1	i	0.18
Cc1ccc2c(Cl)cc(Cl)c(OCC(=O)NCCc3ccccn3)c2n1	i	-0.61
COc1ccccc1C(=O)Nc1c(C)cc(Br)cc1C	i	-1.8
CC(C)C[C@H](NC(=O)N1CC(=O)Nc2ccccc21)C(=O)N[C@H](C(=O)O)c1ccccc1	i	0.2
Cc1ccc(CCNC(=O)CCS(=O)(=O)c2ccc(Br)cc2)cc1	i	1.8
Cc1ccc(NC(=O)CSc2nnc(CSc3nc(C)cc(C)n3)n2Cc2ccco2)c(C)c1	-6.7*	1.2*
Oc1ccc(/C=N/Nc2ccc(Cl)nn2)c(O)c1O	i	0.21
COc1ccccc1OCC(=O)/C=C1/N(C)c2ccccc2C1(C)C	i	-0.64
O=C(COc1ccc([N+](=O)[O-])cc1Cl)Nn1cnnc1	i	0.85
Cc1cccc(CN2C(=O)/C(=C\c3ccc(C(=O)NCCN4CCOCC4)cc3)Sc3ccccc32)c1	i	0.16
COC(=O)[C@]1(Cc2ccccc2)N[C@H](c2ccc(-c3cccc(Cl)c3)cc2)[C@@H]2C(=O)N(C)C(=O)[C@@H]21	i	-0.06
Cc1cc(-c2ccc(C)c(S(=O)(=O)NCc3ccc(OC(C)C)cc3)c2)on1	i	-1.3
CC1CCCCC1NC(=O)C(Cc1ccccc1)NS(=O)(=O)c1cccs1 (stereo not given)	i	-0.49
COc1ccc(NC(=O)c2cc(Cl)ccc2NC(=O)c2ccco2)c(OC)c1	i	0.35
NC(=O)c1nsc(C(=O)N(c2ccc(Cl)cc2)C(C(=O)NCC2CCCO2)c2cccs2)c1N (stereo not given)	i	-0.27
Cc1cccc(-n2ncc3c(NCCCn4ccnc4)ncnc32)c1	i	3.4
CCOc1ccc(S(=O)(=O)NCc2ccccn2)cc1NC(=O)c1ccccc1F	i	-1.8
O=C(C1=C[C@@H](c2ccc(Br)cc2)C[C@@H](OCc2ccc(CO)cc2)O1)N1CCN(Cc2ccc3c(c2)OCO3)CC1	-6.3*	-0.6*
CCN(c1ccccc1)P(=O)(Nc1ccccc1)Nc1ccccc1	i	-1.3
Cc1cc([N+](=O)[O-])nn1CC(=O)Nc1ccc(Cl)cn1	i	3.6
COc1ccccc1NC(=O)N1CCCC1C(=O)NCc1ccccc1Cl (stereo not given)	i	0.55
O=C(Nc1ccc(Br)cc1)c1cc(S(=O)(=O)Nc2ccccn2)ccc1Cl	i	-1.2
Clc1ccc(N=c2ssnc2Cl)cc1	i	-0.01
COc1cc(NS(=O)(=O)c2ccc(NC(=O)/C=C/c3ccc([N+](=O)[O-])cc3)cc2)ncn1	i	1.3
O=C(O)CNC(=O)/C(=C\c1ccco1)NC(=O)c1ccco1	i	0.58
COc1ccc(CN(C(=O)Cc2c[nH]c3ccccc23)C(C(=O)NC2CCCCC2)c2ccc(C)o2)cc1 (stereo not given)	i	0.01
C/C(=N\NC(=O)c1nnn(-c2nonc2N)c1CN(C)c1ccccc1)c1cccnc1	i	1.6

A run of entries from the list above, as a working copy:
SMILES	KCNQ2 inh	KCNQ2 inh baseline
O=C(Nc1ccc(Br)cc1)c1cc(S(=O)(=O)Nc2ccccn2)ccc1Cl	i	-1.2
Clc1ccc(N=c2ssnc2Cl)cc1	i	-0.01
COc1cc(NS(=O)(=O)c2ccc(NC(=O)/C=C/c3ccc([N+](=O)[O-])cc3)cc2)ncn1	i	1.3
O=C(O)CNC(=O)/C(=C\c1ccco1)NC(=O)c1ccco1	i	0.58

Following part
SMILES	KCNQ2 inh	KCNQ2 inh baseline
O=C(c1cccc(F)c1)N1CCC(N2CCCCCC2)CC1	i	-0.74
CCN1C(=O)/C(=C\N2CCCc3ccccc32)SC1=S	i	0.09
CC(=O)N1CCN(c2ccc(NC(=O)c3ccc(Cl)cc3)cc2)CC1	i	-0.49
CC(=O)Nc1ccc(S(=O)(=O)NCc2ccc(C)n2C)cc1	i	-0.16
Fc1ccccc1NC(=S)NCCc1cccc(Cl)c1	i	0.04
COc1ccc(NC(=O)CN(c2ccc(F)cc2)S(=O)(=O)c2ccccc2)c(OC)c1	i	-1.3
NC(=O)c1c(N)sc(=S)n1-c1ccccc1	i	1.7
Cc1ccc(/C=N\NC(=O)COc2ccc(C)cc2[N+](=O)[O-])cc1	i	0.58
COc1ccc(CCN(CC(=O)NC2CCCC2)C(=O)CCC(=O)Nc2cc(C)on2)cc1OC	i	0.77
CCOC(=O)/C(=C/c1c(C)n(C)c2ccc([N+](=O)[O-])cc12)C(C)=O	i	-1.3
Cc1ccc(CCNC(=O)C2CCCN(c3nc4ccccc4o3)C2)cc1 (stereo not given)	i	-0.01
CCN1/C(=C\c2ccc3cc(C)ccc3[n+]2CC)Sc2cc(C)c(C)cc21	i	14
NC(=O)CSc1nc2ccccc2n1Cc1ccccc1F	i	1.3
Cc1cccc(C)c1OC(=O)CN1C(=O)c2ccccc2C1=O	i	-0.13
COc1ccc(CNC(=O)COc2ccc(C(=O)c3ccc(F)cc3)cc2)cc1	i	0.34
CSc1cccc(NC(=O)CNS(=O)(=O)c2ccccc2)c1	i	1.4
CCCNC(=O)c1ccc2c(=O)c(O)c(-c3ccc(OC)cc3)[nH]c2c1	i	-1.2
Cc1ccc(/C=N/NC(=O)CSc2nc3ccccc3n2Cc2ccc(Cl)cc2)o1	i	-0.86
CSc1ccccc1NC(=O)c1cc(-c2cccnc2)nc2ccc(Br)cc12	i	-0.88
Cc1ccc(C)c(OCC(=O)N(Cc2nnc(-c3ccccc3Cl)o2)C2CC2)c1	i	-0.59
CC1(C)CC(=O)C=C(N2CCOCC2)C1	i	0.56
Cc1ccc(C2=Nc3ccccc3SC(c3cccc([N+](=O)[O-])c3)C2)cc1 (stereo not given)	i	-0.76
O=C(NCC1CCCCC1)c1cccnc1	i	-0.64
CC(=O)C1=C(O)C(=O)N(C)C1c1ccccc1[N+](=O)[O-] (stereo not given)	i	-1.1
CC(=O)c1sc(NC(=O)c2ccc(F)c(F)c2)nc1C	i	1.2
CN(C)c1ccc(N/C(=N\S(=O)(=O)c2cccs2)c2ccccc2)cc1	i	0.27
O=C(C[N+]1(CC#Cc2ccccc2)CCOCC1)c1ccccc1	i	-0.68
O=C(NCc1cccnc1)Nc1ccccc1	i	-0.83
Cc1ccc(C(=O)Nc2ncccc2O)o1	i	0.25
Cc1ccc(C(=O)N2c3ccccc3OCC2C)cc1 (stereo not given)	i	-0.04
CCc1ccc(NC(=O)CCC(=O)N2CCSc3ccccc32)cc1	i	-0.02
Cc1ccc(Cl)cc1N1CCN(CC(=O)NC2CCCc3ccccc32)CC1 (stereo not given)	i	-1.6
Cc1c(F)cccc1NC(=O)c1ccc2c(c1)CCN2S(C)(=O)=O	i	1.7
CN(C(=O)COC(=O)c1cccc(F)c1)c1ccccc1	i	0.74
CC(=O)SCCC(=O)N1C(C)CCCC1C(=O)O (stereo not given)	i	-0.05
Cc1cc(OCc2cc(C(=O)N(C)C(C)c3ccccn3)no2)cc(C)c1Cl (stereo not given)	i	-2.2
COCCSc1nnc(NC(=O)c2ccc(NC(C)=O)cc2)s1	i	0.24
COC(=O)c1ccc2c(c1)C(C)(C)C(/C=C/c1ccc(OC)c(OC)c1OC)=[N+]2C	-16*	2.5*
COC(=O)CNC(=O)/C=C/c1cc(Br)ccc1OC	i	0.26
